# CSC inhib: cancer stem cell inhibition; cancer stem cell-like cells viability, luminescence; actives 1.1% (n = 300,000); inhibition, % at 7.5 µM;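 active = mean at 75% or more and at least half the replicates too; tested in HMLE shEcad cells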;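 also: 0% = median of negative and 100% = median of positive control wells; the first replicate is given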
# Rce1 inhib: blocks yeast Ras-converting enzyme | actives 0.27% (n = 290,000) | calls only | Q03530 | yeast membranes, quenched prenylated peptide cleavage fluorescence;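 active = fall in fluorescence gain of 50% or more versus controls, with final raw signal at or below 3038400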;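 also: plate controls were neutral control wells for no effect and wells lacking membranes for full effect; tested at 10 µM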
# UUG fidelity: alters start codon recognition fidelity in yeast; actives 0.13% (n = 350,000); activity score, % at 18.7 µM; S. cerevisiae UUG-firefly luciferase reporter, luminescence/redox ratio;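 active = replicate mean at a twofold rise or more, about +100% in these data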;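 also: firefly luciferase made from a UUG start codon reports start codon fidelity; reporter light over untreated wells divided by growth signal over untreated wells; some hits fall short of that in this replicate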
# MT1-MMP act inh: blocks activation of human MT1-MMP. P50281. HT1080 RFP-PRO-GFP cells, GFP/RFP ratio fluorescence, overnight; percent of plate control window, DMSO zero. GFP/RFP ratio change, % at 20 µM. actives 0.061% (n = 360,000). AID 651647;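 active = GFP/RFP ratio change of at least 30% with cell ATP level not reduced by more than half and red fluorescence within 50% of control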; also: strong numbers were not always called active
#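 Assay system: HT1080 cells carrying an RFP-PRO-GFP reporter | Dosing: Single dose of 20 µM compound, 1% DMSO final | Incubation: Cells overnight before dosing, compound overnight, 37 °C, 5% CO2 | Evaluation: GFP/RFP fluorescence ratio | Control set: DMSO and RFP-L50D-GFP cell wells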
# PABP polyA inh: PABP-poly(A) binding inhibition; P11940; PABP-poly(A) RNA binding, fluorescence polarization; inhibition, % at 35 µM; actives 1% (n = 290,000); AID 2014;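 active = 50% or more with normal probe brightness, or confirmed in later tests; about a fifth of its hits are not listed in these tables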;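 also: calls also rest on retests at 20 µM and on dose response follow-up; controls were probe without protein and protein plus probe with vehicle; some compounds called inactive have numbers as strong as hits; many hits fall short of the cut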
# Target sequence (P11940 whole entry, looked up): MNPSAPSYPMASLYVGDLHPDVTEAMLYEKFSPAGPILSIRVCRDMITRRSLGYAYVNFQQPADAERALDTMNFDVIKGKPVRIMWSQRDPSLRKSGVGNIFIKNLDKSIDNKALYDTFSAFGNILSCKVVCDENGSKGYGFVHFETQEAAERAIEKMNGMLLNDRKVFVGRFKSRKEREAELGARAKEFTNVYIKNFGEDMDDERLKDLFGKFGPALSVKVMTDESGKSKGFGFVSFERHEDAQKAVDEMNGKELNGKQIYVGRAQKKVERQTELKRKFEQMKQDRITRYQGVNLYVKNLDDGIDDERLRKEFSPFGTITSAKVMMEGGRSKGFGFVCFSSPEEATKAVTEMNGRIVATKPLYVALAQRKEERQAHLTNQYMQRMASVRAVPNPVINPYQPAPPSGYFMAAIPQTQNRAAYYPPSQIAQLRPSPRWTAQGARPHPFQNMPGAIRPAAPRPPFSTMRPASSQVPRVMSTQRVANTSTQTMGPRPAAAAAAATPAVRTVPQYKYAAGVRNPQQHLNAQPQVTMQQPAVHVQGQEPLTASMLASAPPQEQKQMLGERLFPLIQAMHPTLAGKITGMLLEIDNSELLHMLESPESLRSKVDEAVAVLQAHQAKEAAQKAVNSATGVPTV
# Env fusion inh: inhibitors of HIV Env-mediated cell fusion. AID 651610. inhibition, % at 12.3 µM. actives 1.1% (n = 360,000). HeLa-JRFL Env/CEM21 cell fusion, luciferase;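 active = mean replicate inhibition score of at least 50 and every replicate individually at or above 50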;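 also: 0% = plate neutral controls and 100% = maraviroc near 300 nM; one replicate is shown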
# eIF4H inh: inhibitors of RNA binding by human eIF4H; Q15056; eIF4H fluorescence polarization binding assay; inhibition, % at 35 µM; actives 0.94% (n = 290,000);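 active = 50% or more with normal probe brightness, or confirmed in later tests; about a fifth of its hits are not listed in these tables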;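 also: calls also rest on retests at 20 µM and on dose response follow-up; 0% = protein and probe with vehicle and 100% = probe without protein; strong numbers were not always called active; many hits fall short of the cut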
# eIF4H inh retest: recorded beside eIF4H inh, whose call it bears; inhibition, %; compound at 20 µM; confirmation average;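 mean of two retest wells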
# PABP polyA inh retest: further read-out of PABP polyA inh, marked with its call; inhibition, %; compound at 20 µM; confirmation repeats;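 mean of two retest wells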
# MT1-MMP act inh RFP: second read-out of MT1-MMP act inh, no call of its own (marks repeat the call); RFP signal change, %; measured here: RFP expression control read;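 0 = vehicle wells; hits needed this value within 50% of zero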
# * = called active by the depositor; i = inactive; / = not tested or not shown. Not all compounds are listed; rates above refer to the full screens.
SMILES,CSC inhib,Rce1 inhib,UUG fidelity,MT1-MMP act inh,MT1-MMP act inh RFP,PABP polyA inh,Env fusion inh,eIF4H inh,others
O=C1CCCCC1Sc1nnc(-c2ccc3c(c2)OCO3)o1 (centres undefined),-1,i,/,3,6,74*,68*,9.7*,eIF4H inh retest=86*;PABP polyA inh retest=74*
COCCNC(=O)c1onc(CSc2ccccc2)c1C(=O)NCCOC,-2,i,1,2,-1,/,0,/,
CCOC(=O)C1(Cc2cccc(Cl)c2)CCCN(C(=O)c2occc2C)C1 (centres undefined),-8,i,-6,-2,-1,2,1,3,
Cc1cccc(NC(=O)Cn2c(O)c(N=NC(=O)c3ccncc3)c3ccccc32)c1,14,i,/,8,-2,13,-5,6,
Cc1ccc(O)c(-c2cc(-c3cccc(F)c3)n[nH]2)c1,41,i,-19,7,0,4,-44,-4,
NC(=O)COc1ccc(C2c3c(oc4ccccc4c3=O)C(=O)N2CC2CCCO2)cc1 (centres undefined),11,i,-11,3,-1,7,-35,-6,
C/C(=N\OC(=O)c1ccc(Cl)cc1)c1nccs1,-15,i,-36,-1,5,-2,-16,10,
NC(=O)CC[C@@H]1NC(=O)[C@@H]2CCCN2C(=O)c2cc([N+](=O)[O-])cc(I)c2NCCC[C@@H](C(=O)NC(CC(=O)O)C(N)=O)NC1=O (some centres undefined),-6,/,/,/,/,2,18,5,
COc1ccc(N2CCN(C(=O)CN(C3CCCCC3)S(C)(=O)=O)CC2)cc1,-13,i,/,1,-5,-9,0,-9,
CC(C)(C)c1ccc(CC(=O)N2CCC2(C)C(=O)Nc2cccc3c2CCCC3)cc1 (centres undefined),/,/,4,4,-1,/,20,/,
COC(=O)CN1C(=O)[C@H]2[C@@H](/C=C/c3ccccc3)N3C(=O)CN(CC4CC4)C(=O)[C@@]3(Cc3ccccc3)[C@H]2C1=O,14,i,-13,-2,4,-1,-10,-3,
CN1C(C(=O)NCCc2cccs2)CC2Cn3c(nc4cc5ccccc5cc43)C21 (centres undefined),4,i,5,4,-2,8,-52,-2,
COc1ccc(/C=N/NC(=O)c2snnc2C)c(OC)c1OC,8,i,-8,1,-1,-6,15,13,
CCCCCNCC(=O)Nc1cccc(C(=O)Nc2cccc(C(F)(F)F)c2)c1,93*,i,/,-9,-13,-17,27,0,
COc1ccc(S(=O)(=O)N(C)C)cc1NC(=O)COC(=O)c1n[nH]c2ccccc12,/,/,1,6,-13,/,28,/,
O=C(Nc1ccccc1)C1=C[C@@H](c2csc3ccccc23)C[C@@H](OCc2ccc(CO)cc2)O1,86*,i,-10,2,-1,-9,-33,-6,
Nc1c(S(=O)(=O)c2cccs2)c2nc3ccccc3nc2n1CCc1ccccc1,8,i,/,/,/,-1,81*,-2,
CSCCC(NC(=O)c1ccccc1)C(=O)N1CCN(C(c2ccccc2)c2ccccc2)CC1 (centres undefined),10,i,-6,-10,-17,-12,4,14,
Cc1ccc(-c2nc3ccccn3c2C=O)cc1,-15,i,/,1,10,6,-70,-5,
Cc1cccc(C(=O)OCC(=O)NC2CCCCCCC2)c1,/,/,-11,11,5,/,-9,/,
CCOc1ccccc1NC(=O)CSc1nnc(CNC(=O)c2cc(OC)c(OC)c(OC)c2)o1,1,i,-25,0,4,14,4,-11,
Cc1ccc(NC(=O)c2ccc(-n3cccn3)nc2)cc1,-14,i,/,5,1,-3,7,-4,
COc1cccc(/C=C/C(=O)c2c(O)cc(C)oc2=O)c1O,25,i,-26,-15,1,4,i,-10,
CCOc1cc(/C=C2/C(=N)N3C(=NC2=O)SN=C3S(C)(=O)=O)ccc1OS(=O)(=O)c1ccccc1,-9,i,8,-8,2,0,/,8,
CC(C)(C)c1ccc(C(=O)NCc2cccnc2)cc1,-21,i,/,1,1,-3,-10,-2,
Cc1sc2nc(SCc3nc4ccccc4[nH]3)n(Cc3ccco3)c(=O)c2c1C,-19,i,-13,0,-7,6,10,1,
COc1ccc(OCC(=O)Nc2ccc(N3CCN(C(=O)c4ccccc4)CC3)c(Cl)c2)cc1,7,i,-5,-5,-25,6,62*,-2,
O=C(CCCCCn1c(=S)[nH]c2ccc(N3CCOCC3)cc2c1=O)NCc1ccccc1,-7,i,8,4,5,-2,-21,22,
CCCc1nnc(NC(=O)CCC(=O)N2CCN(Cc3ccccc3)CC2)s1,-7,i,-4,-4,3,5,-1,-6,
Cc1ccccc1CSCc1nc(N)nc(Nc2ccccc2C)n1,-4,i,/,1,-3,6,-18,-3,
Cc1nn(-c2cc(C(F)(F)F)ccc2Cl)c2nc(C(F)(F)F)[nH]c(=O)c12,17,i,-9,3,7,-4,-61,2,
CC(NC(=O)c1ccco1)C(=O)OCC(=O)c1ccc(Cl)s1 (centres undefined),1,i,/,-2,7,-5,11,10,
COc1ccc(C(=O)n2nc(-c3ccc(OC)cc3)nc2N)cc1,-2,i,-11,5,2,-6,19,-6,
C=C(C)CN(CC)C(=O)CSc1ccc(S(=O)(=O)N2CCN(Cc3ccccc3)CC2)cn1,/,/,7,5,-6,/,20,/,
CCOc1ccc(C(C(=O)NC2CCCC2)N(C(=O)c2snc(C(N)=O)c2N)C2CCCC2)cc1 (centres undefined),-9,i,-7,-3,-2,-3,-66,-21,
COc1cc2nc(Nc3ccc(F)cc3)nc(N)c2cc1OC,11,i,-4,15,3,-4,-16,-11,

# Next part; the last 4 above are carried over.
SMILES,CSC inhib,Rce1 inhib,UUG fidelity,MT1-MMP act inh,MT1-MMP act inh RFP,PABP polyA inh,Env fusion inh,eIF4H inh,others
COc1ccc(C(=O)n2nc(-c3ccc(OC)cc3)nc2N)cc1,-2,i,-11,5,2,-6,19,-6,
C=C(C)CN(CC)C(=O)CSc1ccc(S(=O)(=O)N2CCN(Cc3ccccc3)CC2)cn1,/,/,7,5,-6,/,20,/,
CCOc1ccc(C(C(=O)NC2CCCC2)N(C(=O)c2snc(C(N)=O)c2N)C2CCCC2)cc1 (centres undefined),-9,i,-7,-3,-2,-3,-66,-21,
COc1cc2nc(Nc3ccc(F)cc3)nc(N)c2cc1OC,11,i,-4,15,3,-4,-16,-11,
O=C(/C=C/NNC(=O)c1ccccc1)c1ccc([N+](=O)[O-])cc1,20,i,-3,7,1,-4,13,8,
O=C(CSc1ccccn1)N/N=C/c1cc([N+](=O)[O-])ccc1O,6,i,/,1,-3,-1,-8,12,
COc1cc(NC(=S)N2CCN(C)CC2)c(OC)cc1Cl,-11,i,/,6,9,11,10,5,
Cc1ccc(S(=O)(=O)NC(=NC2CCCCC2)c2ccc(F)cc2)cc1,-9,i,-24,0,1,-2,3,-9,
COc1ccc(NS(=O)(=O)c2coc(C(N)=O)c2)cc1Cl,/,i,2,0,3,1,13,6,
Cc1nc2ncnn2c(C)c1CCC(=O)N1CC(C)CC(C)C1 (centres undefined),-15,/,-11,2,4,-4,-28,1,
CC1=NNC(=O)C1CCC(=O)N/N=C/c1ccc(Cl)cc1Cl (centres undefined),-11,i,/,6,4,2,13,0,
O=C(Cn1nc(Cc2ccncc2)c2ccccc2c1=O)Nc1cccnc1Cl,-4,i,-5,5,-1,6,10,2,
CCN(c1ccccc1)S(=O)(=O)c1c(C)noc1C,/,/,27,-5,-2,/,7,/,
S=C(NCC1CCCO1)Nc1ccccc1Cl (centres undefined),-26,i,/,4,7,-3,6,-8,
OCCOCCn1c(C(CO)Nc2nc(-c3cccc(Br)c3)cs2)nc2ccccc21 (centres undefined),10,i,-13,4,-10,/,-22,/,
CC1(C)Oc2ccc3ccc(=O)oc3c2-c2cn[nH]c21,3,i,-6,0,-3,36,/,4,
Cc1cc(OCC(=O)Nc2ccc3oc(=O)ccc3c2)ccc1Cl,-9,i,-5,4,6,7,4,-12,
O=C(COc1ccc(Cl)cc1Br)Nc1cccc(S(=O)(=O)N2CCCC2)c1,/,/,-11,7,-7,/,-6,/,
O=S(=O)(NCc1ccccc1)c1cccc2nonc12,-12,i,-18,1,3,-7,-52,-10,
COc1cc(OC)cc(C(=O)NCc2n[nH]c(=S)n2-c2ccccc2OC)c1,0,i,-16,0,7,-6,/,2,
CCc1nnc(NS(=O)(=O)c2ccc(N=Cc3c(C)[nH]n(-c4cccc(Cl)c4)c3=O)cc2)s1,17,i,-6,-2,1,-2,/,-3,
CCCC(N)CCCCCC(=O)O (centres undefined),/,i,-4,4,7,4,-104,3,
CC1CCN(CC(C)CNC(=O)c2cc(-c3ccccn3)nc3ccccc23)CC1 (centres undefined),/,i,22,2,9,0,/,-6,
CC(=O)Nc1ccc2nc(-c3ccccc3)cn2c1,-1,i,/,-1,6,10,-15,2,
CC(=O)N1CCOc2ccc(S(=O)(=O)N3CCC(C(=O)Nc4ccc(F)cc4)CC3)cc21,-1,i,1,5,-5,-5,-5,2,
CCOC(=O)c1oc2ccccc2c1CSc1nnnn1-c1ccc(OC)cc1,-6,i,-16,4,0,0,-49,-2,
O=C(COc1ccc(Cl)cc1)Nc1ccc(C(=O)NCc2cccnc2)cc1,74,i,-10,5,-18,-10,/,9,
CCCc1c(NC(=O)Nc2ccc(Cl)cc2Cl)cnn1-c1ccccc1,47,i,-14,10,0,-9,-16,-4,
COc1cccc(C(=O)NCCS(=O)(=O)N2CC(C)CC(C)C2)c1 (centres undefined),-5,i,1,3,4,/,/,/,
Cc1ccc(-c2nnn(CC(=O)N(CC(=O)NCc3ccccc3)c3cccc(C)c3C)n2)o1,9,i,18,-1,-1,0,-65,-15,
CC(O)c1cccc(NC(=O)CC(c2ccccc2)c2ccccc2)c1 (centres undefined),-7,i,-13,3,2,3,8,-13,
Fc1ccc(/C=N/Nc2ccccn2)cc1,-9,i,/,0,1,-13,-179,-1,
COc1ccc(NC(=O)C(=O)NCC(=O)Nc2cc(OC)ccc2OC)cc1,17,i,-6,-1,1,-6,-8,-5,
CC1(NC(=O)c2cccc(S(=O)(=O)N3CCN(c4ccccc4)CC3)c2)CCS(=O)(=O)C1 (centres undefined),-10,i,/,2,-7,/,-7,/,
CC1(C)Oc2ccc(C(=O)Nc3ccccc3F)cc2N(CC(=O)N2CCOCC2)C1=O,4,i,-7,0,3,2,-14,-2,
CCOC(=O)NNc1ccc(C(F)(F)F)cn1,-9,i,-10,-2,-4,-8,-9,-21,
COc1cccc2oc3cc(C#Cc4ccccn4)ccc3c(=O)c12,12,i,/,/,/,33,-122,23,
COc1ccc(C2C(C#N)=C(N)Oc3c2ccc2cccnc32)cc1OC (centres undefined),51,i,/,-7,-11,3,-463,-4,
O=C(COc1cccc(Cl)c1Cl)Nc1ccc2c(c1)CCC2,20,i,/,-6,-3,3,-5,-1,
CCOc1ccccc1NC(=O)CCn1cccc1,-13,i,/,-1,3,-4,-13,-4,
CC1CCCN(C(=S)Nc2ccc(F)cc2)C1 (centres undefined),-2,i,/,4,-1,12,-18,11,
COC(=O)c1ccc(CN2CCCC(C(=O)Nc3cccc(-n4cccn4)c3)C2)cc1 (centres undefined),11,i,2,1,-2,12,-1,4,
Cc1c(-n2c(O)c(C3=c4ccccc4=NC3=O)sc2=S)c(=O)n(-c2ccccc2)n1C,-2,i,/,-6,-3,-27,11,-6,
Nc1nc(Nc2ccccc2)sc1C(=O)c1ccccc1,50,i,-8,-3,-2,2,-13,-6,
Cc1cc(C)c2c(c1)/C(=N/NS(=O)(=O)c1ccc(Br)cc1)CCC2,38,i,-16,-2,-2,17,/,2,
CC(C)(C)c1ccc(C(=O)N/C(=C\c2ccco2)C(=O)Nc2ccccc2C(=O)O)cc1,9,i,-14,-6,4,16,-32,25,

# Source: PubChem BioAssay (several laboratories)
